StopGo RLuc – lowers the Renilla signal of an FMDV 2A StopGo reporter. HEK cells with a luciferase reporter of 2A StopGo recoding. Potency, µM (titrated, usually from 57.5 µM), for inactives: at the highest dose signal change, negative = less light. 0.32% of 120,000 active. AID 1745857; active means well fitted falling curve with a large enough effect; inconclusive means small, poorly fitted or top-dose-only effect; inactive means no such curve, though single readings can be large or run the other way; also: nearly all actives have a fitted effect of over 55% in size; overnight with compound
2A firefly – FMDV 2A StopGo reporter, firefly signal | Potency, µM (titrated, usually from 57.5 µM), without a hit: top-dose signal change, negative = less light | 0.23% of 120,000 active | HEK cells with a luciferase reporter of 2A StopGo recoding | AID 1745856; active = well fitted falling curve with a large enough effect; inconclusive = small, poorly fitted or top-dose-only effect; inactive = no such curve, though single readings can be large or run the other way; also: nearly all actives have a fitted effect of over 60% in size; overnight with compound
An asterisk follows results filed as active; ? = inconclusive; & = joins results of further samples; [ ] = remark or other dose. % is scaled to controls: 0 for no effect and ±100 for the full control effect; potency is read from the fitted curve at half-maximal effect. The list is partial, so the mix of outcomes need not match the whole.

SMILES	StopGo RLuc	2A firefly
COc1cccc(-n2c(=O)c3c(C)c(C(=O)N(C)C)sc3n(Cc3ccc(F)cc3Cl)c2=O)c1	-4%	-17%
COc1ccc(-c2nc(Cn3c(SCc4cccc(F)c4)nc4cccnc43)c(C)o2)cc1	16%	-10%
C[C@]12C=CC(=O)C=C1CC[C@@H]1[C@@H]2[C@@H](O)C[C@@]2(C)[C@H]1CC[C@]2(O)C(=O)CO	8%	-2%
CCc1cccc(NC(=O)c2nc3ccccc3nc2N2CCCC2)c1	3%	-8%
COc1ccc(CNC(=O)C(F)(F)F)cc1	3%	14%
CCCCCCCCCCCCS(=O)(=O)CC(Cl)CO (configuration not stated)	?	?
COc1ccc2cc(CNc3ccc(OC)c(OC)c3)c(=O)n(CC(=O)Nc3ccc(C)cc3)c2c1	14%	15%
CC1CC1C(=O)Nc1ccc(SC2CCCC2)cc1 (configuration not stated)	46%[activator]	224%[activator]
O=c1c2ccccc2cnn1Cc1coc(-c2ccc(Cl)cc2)n1	0%	78%[activator]
CCCCNc1nc(-c2ccc3c(c2)CC(=O)N3)cs1	-1%	5%
CCOc1ccc(C(=O)Cn2cnc3ccccc3c2=O)cc1	-16%	125%[activator]
CCOc1ccc(CNC(=O)c2sc3ncnc(N(C)C4CCCCC4)c3c2C)cc1	7%	-17%

The list goes on (4 carried over from the part before).
SMILES	StopGo RLuc	2A firefly
O=c1c2ccccc2cnn1Cc1coc(-c2ccc(Cl)cc2)n1	0%	78%[activator]
CCCCNc1nc(-c2ccc3c(c2)CC(=O)N3)cs1	-1%	5%
CCOc1ccc(C(=O)Cn2cnc3ccccc3c2=O)cc1	-16%	125%[activator]
CCOc1ccc(CNC(=O)c2sc3ncnc(N(C)C4CCCCC4)c3c2C)cc1	7%	-17%
CCCCCCCCCCCCCCCCCCN(C)C	12%&-9%	5%&-8%
O=C(Nc1cccc(C(F)(F)F)c1)c1cc2nc(-c3ccc4c(c3)OCO4)cc(C(F)(F)F)n2n1	-6%	-8%
COCCNC(=S)N/N=C(/C)c1ccc(C(C)(C)C)cc1	-13%	21%
Cc1ccc(N=C2NC(=O)CC(C(=O)Nc3cc(C(F)(F)F)ccc3Cl)S2)cc1 (configuration not stated)	6%	27%
Cn1nnnc1SCC(=O)N(Cc1cccs1)c1ccc2c(c1)OCCO2	6%	10%
O=C(NCC(c1cccs1)c1c[nH]c2ccccc12)c1cccs1 (configuration not stated)	0%	31%[activator]
COc1cccc(CNC(=O)CCn2c(=O)c3cccn3c3ccc(F)cc32)c1OC	-5%	-1%
COC(=O)c1cc(C(=O)OC)cc(-c2ccc(C=O)o2)c1	-3%	3%
CC(C)c1ccc(NC(=O)CSC2=Nc3ccccc3C3=NC(CCC(=O)NC4CCCCC4)C(=O)N23)cc1 (configuration not stated)	12%	-24%
CCOc1ccc(-c2cc(-c3nc(-c4ccc(OCC)cc4)no3)[nH]n2)cc1	10%	21%
CCCNC(=O)C(=O)NCc1n[nH]c(=O)c2ccccc12	-6%	-2%
Cc1ccc(-n2nnnc2CNC(=O)c2ccccc2)cc1C	10%	-3%

Part of the list above, set out differently.
smiles: COCCNC(=S)N/N=C(/C)c1ccc(C(C)(C)C)cc1
  StopGo RLuc: -13%	2A firefly: 21%
smiles: O=C(Nc1cccc(C(F)(F)F)c1)c1cc2nc(-c3ccc4c(c3)OCO4)cc(C(F)(F)F)n2n1
  StopGo RLuc: -6%	2A firefly: -8%

One compound at a time (already shown). Order of screens: StopGo RLuc | 2A firefly
Results for CCCNC(=O)C(=O)NCc1n[nH]c(=O)c2ccccc12 : -6% | -2%
Results for CCOc1ccc(-c2cc(-c3nc(-c4ccc(OCC)cc4)no3)[nH]n2)cc1 : 10% | 21%

Further compounds:
SMILES	StopGo RLuc	2A firefly
CC(=O)N1CCc2cc(CNC(=O)Nc3ccc(Br)c(C)c3)ccc21	-6%	-6%
O=C(/C=C/c1ccc(-c2ccc(F)cc2)s1)N1CCS(=O)CC1	6%	57%[activator]
Fc1ccc(Nc2nc(-c3cccc(Cl)c3)c3c(n2)-c2ccccc2OC3)cc1	104%[activator]	-7%
O=C(Cc1cccc2ccccc12)NCCc1cccnc1	2%	8%
Cc1nc2ncnn2c(C)c1CCC(=O)NCc1ccc(Cl)cc1	-10%	-16%
COc1cccc(CNC(=O)CN2C(=O)CCn3nc(-c4cn(C)c5ccccc45)cc32)c1OC	0%	4%
O=c1c(S(=O)(=O)c2ccccc2)cn(Cc2ccc(F)cc2)c2cc(N3CCCC3)c(F)cc12	-11%	-4%
N#C/C(=C\c1ccc(O)c(Br)c1)c1nc2ccccc2[nH]1	14%	0%
Cc1cc(Nc2ccccc2Cl)n2nc(-c3ccco3)nc2n1	35%[activator]	9%
COc1ccccc1NC(=O)CSc1nnc(C)n1-n1cccc1	-8%	-4%
O=C(CCn1nc(-c2ccccc2)c2ccccc2c1=O)NC1CCCCC1	206%[activator]	14%
CCOC(=O)COc1ccc(/C=C(\C#N)c2nc3ccc(C)cc3[nH]2)cc1OC	12%	183%[activator]
CCCN(C(=O)c1cn(C)c(=O)c2cc(OC)c(OC)cc12)c1ccc(CC)cc1	6%	8%
CCc1ccc2oc(C(=O)Nc3ccccc3Cl)cc(=O)c2c1	23%	123%[activator]
COc1ccc(-c2nc(S(=O)(=O)c3ccc4c(c3)OCCO4)c(N3CCN(C)CC3)o2)cc1	106%[activator]	-7%
Cc1cc(C)cc(NC(=O)CC(C)n2nc(C)cc2C)c1 (configuration not stated)	-1%	9%
CNC(=O)NC(=O)C(C)n1cnc2c1c(=O)n(C)c(=O)n2C (configuration not stated)	1%	-8%
COc1cccc(NC(=O)CCc2nnc3n(CC(C)C)c(=O)c4ccccc4n23)c1	1%	-2%
Cc1sc(NC(=O)C(C)C)c(C#N)c1C	8%	22%
O=C(O)c1cc2c(OCc3ccccc3)cccc2[nH]1	4%	0%
COc1ccc(F)cc1C(=O)C(=O)O	6%	2%
CS(=O)(=O)N1CCCc2cc(C(=O)c3cc4ccccc4o3)ccc21	?	-17%
O=C(Nc1cc(F)ccc1F)c1ccc2c(c1)nnn2C1CCCC1	5%	171%[activator]
OCc1ccccc1O	-6%	4%[11.5 µM]
O=c1[nH]c(CN(Cc2cccs2)CC2CCCO2)nc2scc(-c3ccco3)c12 (configuration not stated)	-16%	-13%
CNC(=S)N/N=C/c1cccc(Cl)c1	2%	0%
Cc1ccc(-c2onc(C)c2C)cc1S(=O)(=O)NCc1ccco1	170%[activator]	-2%
COc1cc(C2CC(=O)c3c(C)nc(Nc4ccccc4)nc3C2)cc(OC)c1OC (configuration not stated)	-13%	-14%
COc1cc(OC)cc(-c2cc(N3C(=O)Nc4ccccc4N3O)n[nH]2)c1	1%	-1%
O=C(NCC(F)(F)F)C1CCN(Cc2ccccc2)CC1	11%	0%
Cc1ccc2c(c1)-c1nc(-c3ccc(Cl)cc3)cc(-c3coc4ccccc4c3=O)c1CO2	-8%	3%
CNC(=O)/C=C/c1ccc([N+](=O)[O-])cc1	8%	24%
COCCCN(CCOC)Cc1ccccc1	-7%	0%
C/C(=N\NC(=O)C1CCCCC1)c1ccc(NC(=O)c2ccc(Cl)s2)cc1	36%[activator]	264%[activator]
Cc1c(CCC(=O)Nc2cccc(F)c2)c(=O)oc2cc(O)ccc12	-3%	-3%
Cc1oc2c(c1C(=O)NCc1cccc(Br)c1)C1=NCCN1C=N2	-17%	20%
Cc1cc(NC(=O)c2ccc([N+](=O)[O-])o2)cc(-c2nc3cc(C(C)C)ccc3o2)c1O	-21%	-5%
CC(C)(C)C1CCc2c(sc3ncc(NC(=O)c4ccccc4)c(=O)n23)C1 (configuration not stated)	0%	9%
Cc1ccc(Cl)cc1NC(=O)CSc1ncc(-c2ccc(F)cc2)o1	-13%	2%
O=C(OCc1ccc(F)cc1)c1cnc2ccccc2n1	-3%	8%
COc1cccc2[nH]c(C(=O)NCc3ccc4c(c3)CCN4C(=O)c3ccc(F)cc3)cc12	0%	-19%
CCCCOC(=O)c1ccc(NS(=O)(=O)c2c(C)nc3scc(C)n3c2=O)cc1	-2%	?
COc1ccccc1CNC(=O)c1cccc(S(=O)(=O)N2CCc3ccccc3C2)c1	11%	14%
CCCc1cc(=O)[nH]c(SCc2nc(-c3ccc(OCC)cc3)no2)n1	-13%	-13%
CC(Oc1ccccc1)C(=O)NCc1ccnc(N(C)C)c1 (configuration not stated)	10%	23%
Cc1ccc(C(=O)Nc2oc3ccccc3c(=O)c2-c2ccccc2)cc1	9%	18%
O=c1ccc2ccccc2o1	-8%	-17%
NS(=O)(=O)c1ccc(NC(=O)NC2CCSc3ccc(F)cc32)cc1 (configuration not stated)	7%	7%
CCc1ccc(-n2c(=O)c3ccc(C(=O)NCCc4ccccc4)cc3n(CC(N)=O)c2=O)cc1	-2%	22%
CC(=O)Nc1ccc2c(CN3CCCCC3)cc(=O)oc2c1	-11%	42%[activator]
CC(C)CCNC(=O)c1ccc2c(c1)CCCN2C(=O)c1ccc(Cl)cc1	2%	2%
COc1ccc(C(=O)O)cc1C12CC3CC(CC(C3)C1)C2	-6%	-19%
O=C(CCc1nc(-c2ccccc2)c(-c2ccccc2)o1)N1CCCCC1	23%	4%
O=C(NCCc1ccccc1)NC(C(=O)N1CCc2ccccc21)c1ccccc1 (configuration not stated)	36%[activator]	-14%
CC(C)(C)c1ccc(CCC2OCC(C[N+]3(C)CCOCC3)O2)cc1 (configuration not stated)	19%	55%[activator]
C/C(=N/Nc1ccc(S(N)(=O)=O)cc1[N+](=O)[O-])c1ccccc1	-14%	-7%
CCc1c(C)sc(NC(=O)C(CC)CC)c1C#N	-2%[1.06 µM]	2%
COc1ccc(C)cc1NC(=O)c1ccc2c(SCC(=O)O)c3c(nc2c1)CCCC3	-5%	-14%
O=C(CSc1nc(=O)[nH]c2c1CCCC2)NCc1ccc(F)cc1	-6%	-11%
COc1ccc2[nH]c(S(=O)Cc3ncc(C)c(OC)c3C)nc2n1 (configuration not stated)	1%	-8%[11.5 µM]

Among those listed so far, these contain bromine.
SMILES	StopGo RLuc	2A firefly
CC(=O)N1CCc2cc(CNC(=O)Nc3ccc(Br)c(C)c3)ccc21	-6%	-6%
N#C/C(=C\c1ccc(O)c(Br)c1)c1nc2ccccc2[nH]1	14%	0%
Cc1oc2c(c1C(=O)NCc1cccc(Br)c1)C1=NCCN1C=N2	-17%	20%

New compounds follow.
SMILES	StopGo RLuc	2A firefly
CCNc1c(NC(=O)NCc2ccc(F)cc2)c(=O)oc2ccccc12	-13%	-7%
Brc1ccc(-c2nnc(COc3cccc(-n4cnnn4)c3)o2)s1	-3%	51%[activator]
COc1ccc2[nH]cc(CCN=C(NC(=O)c3cccc(Cl)c3)Nc3nc(C)cc(C)n3)c2c1	73%[activator]	76%[activator]
Fc1ccc(-c2cn3c4ccccc4n(CCN4CCOCC4)c3n2)cc1	-9%	6%
COc1ccc(NC(=O)c2nc3cc(C)c(C)cc3nc2N2CCOCC2)cc1	0%	60%[activator]
O=C(Nc1ccc(Cl)c(C(F)(F)F)c1)c1c(F)cccc1F	1%[1.06 µM]	29%
Cc1ccc(-c2csc(Nc3ccc(S(=O)(=O)Nc4nc(C)cc(C)n4)cc3)n2)cc1	-21%	?
CC(C)C[C@H](NC(=O)[C@H](CCc1ccccc1)NC(=O)CN1CCOCC1)C(=O)N[C@@H](Cc1ccccc1)C(=O)N[C@@H](CC(C)C)C(=O)[C@@]1(C)CO1	-1%	17%[11.5 µM]
